# PMP22 txn prim: PMP22 gene transcription modulation | AID 1508649 | 2% of 43,000 active | Potency, µM (highest dose often 57.5 µM), for the others: at the top dose activity change, negative = inhibition, actives largely listed as inhibitors | S16 Pmp22-F2sN Schwann cells (luciferase reporters placed in the Pmp22 gene), FLuc/NLuc coincidence luminescence, 24 h; active = clear falling dose curves in both reporters; inconclusive = both reporters move, but less clearly or upward; inactive = either reporter flat; the % is the NLuc reporter signal; also: % is scaled to controls: 0 for no effect and ±100 for the full control effect; some results filed as inactive show a strong effect at the top dose
#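 qHTS, 1536-well. Cells seeded, compounds added by pin tool, 24 h 37C. Nano-Glo reagent 1 (lysis/FLuc), 10 min RT, read; Stop&Glo, 10 min RT, read NLuc.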
# HTT prom inh: inhibitors of huntingtin promoter activity; 0.93% of 48,000 active; HEK293 HTT promoter firefly luciferase reporter (activity 0% = vehicle and -100% = no light), 24 h; Potency, µM (top dose mostly 57.5 µM), for the others: at the highest dose activity change, negative = inhibition, most hits filed as inhibitors; AID 1508623; active = well fitted inhibition curve with a large enough effect; inconclusive = small, poorly fitted or top-dose-only effect; inactive = no such curve, though single readings can be large or run the other way; also: nearly all actives have a fitted effect of over 50% in size
#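 HEK293 cells carrying firefly luciferase reporters were seeded at 2,500 per well in Opti-MEM and cultured for 24 h. They were then treated with compounds at up to 57.5 uM final for 24 h at 37 degrees C before Dual-Glo luminescence readout.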
# * marks the source's active call; other numbers are inactive results; u = inconclusive; x = not tested or not shown; & = joins results of further samples; [ ] = dose if it differs, or a comment. Potency is read from the fitted curve at half-maximal effect.
molecule	PMP22 txn prim	HTT prom inh
Cc1nnc(N2CCC(C(=O)NC3CCC(C)CC3)CC2)c2nn(-c3ccc(Cl)cc3)c(C)c12 (stereo not drawn)	37%	-12%
CCOCc1cc(CN2CCN(c3cccc(Cl)c3)CC2)c(O)c2ncccc12	5.7µM*	u
Nc1ncnc2c1c(-c1cccc(OCc3ccccc3)c1)cn2C1CC(CN2CCCC2)C1 (stereo not drawn)	x	-27%
CC(=O)c1ccc(NC(=O)COc2ccccc2-c2nc(C)no2)cc1	38%	-21%
CC1=C(C(=O)O)N2C(=O)[C@@H](NC(=O)[C@H](N)C3=CCC=CC3)[C@H]2SC1	x	7%&-3%
COc1cccc(OC)c1C(=O)Nc1ccc2c(c1)CCCN2S(=O)(=O)c1ccc(C)cc1	10%	-30%
COc1cc(OC)c(NC(=O)C2CCN(S(=O)(=O)c3c(C)noc3/C=C/c3c(C)cc(C)cc3C)CC2)cc1Cl	15%	-8%
CC(C)COc1ccc(C(=O)N2CCCCC2CCN2CCOCC2)cc1 (stereo not drawn)	-22%	-8%
COc1cc2c(cc1NC(=O)COc1cc(C)cc(C)c1)oc1ccccc12	-63%	-10%
CCc1cccc(C)c1NC(=O)CN1CCN(Cc2ccccc2Cl)S1(=O)=O	-5%	-3%
Cc1nc(-c2ccc(Cl)cc2)sc1CCNC(=O)C(=O)Nc1ccc2c(c1)OCO2	u	-22%
COc1cccc(-c2cn3c(n2)sc2cc(C(=O)NCCc4ccccc4)ccc23)c1	-15%	8%
Cc1cn2c(=O)cc(COc3cccc(NC(=O)c4ccc(C(C)(C)C)cc4)c3)nc2s1	u	-17%
Cc1c(NC(=O)c2cc(=O)c3ccccc3o2)c(=O)n(-c2ccccc2)n1C	-1%	-6%
CCOCCCn1c(SCC(=O)Nc2ccccc2CC)nc2ccccc2c1=O	-7%	-21%
COC(=O)c1c(C)sc(-c2c(-c3ccc(F)cc3)[nH]c3[nH]c(=O)[nH]c(=O)c23)c1O	-5%	2%
CC(C)CCNC(=O)c1cccc(Nc2nc3ccccc3n3nnnc23)c1	9.5µM*	-12%
Cc1ccc(NC(=O)CC2Nc3cccc4cccc(c34)NC2=O)cc1 (stereo not drawn)	u	-23%
CC(=O)c1cccc(Nc2ncnc3c2cnn3C)c1	-8%	-8%
CCCn1cc(S(=O)(=O)c2ccc(OCC)cc2)c(=O)c2cc(C)ccc21	68%	-25%
Cc1ccc(CCNC(=O)c2ccc(CS(=O)(=O)Cc3ccc(Cl)cc3)o2)cc1	-7%	0%
COc1cc(-c2nc3cnccn3c2Nc2ccc(C(C)C)cc2)ccc1O	u	u
Fc1ccc(NCc2nc3ccccc3n2CCOc2ccccc2Cl)cc1	u	-25%
CC(=O)Nc1ccc(C)cc1-c1nc2ccccc2n(CC(=O)Nc2cc(Cl)ccc2C)c1=O	-3%	-9%
CC(C)(C)c1ccc(C(=O)Nc2ccc(NC(=O)c3ccc(Cl)c(Cl)c3)cc2)cc1	0%	-21%[11.5 µM]

# (continued)
molecule	PMP22 txn prim	HTT prom inh
Cc1ccc(C)c(CN2C(=O)c3ccccc3S(=O)(=O)c3ccc(C(=O)N4CCN(C)CC4)cc32)c1	u	-19%
Cc1cccc(NC(=O)Cn2c(SCC(=O)NCc3ccccc3)nc3ccccc32)c1C	-96%	-22%
CCCN(CCC)CC(O)Cn1cc(/C=C/C(=O)c2ccc(C)cc2)c2ccccc21 (stereo not drawn)	u	u
COc1ccc(/C=C(/C#N)c2nc(-c3ccc(Br)cc3)cs2)cc1	-30%	-3%
CCOc1ccc(CCNc2ncnc3onc(-c4ccc(F)cc4)c23)cc1OCC	u	u
CCCCN(C)CCCNC(=O)C1CCN(c2nc3ccc(CC)cc3s2)CC1	u	33%
CCOC(=O)c1cnc2c(C)cc(C)cc2c1NCCN1CCOCC1	u	-31%
Cc1ccc(Cl)cc1N1CCN(c2ncnc3onc(C)c23)CC1	u	u
CCC(=O)N1c2ccc(S(=O)(=O)N3CCCCCC3)cc2CC1C (stereo not drawn)	-16%	-9%
O=C(O)c1ccccn1	x	6%
Cc1ccc(NS(=O)(=O)c2cn(C)c(C)n2)c(Br)c1	-10%	-2%
Cc1ccc(OCCn2cc(C(=O)C3CCCCC3)c3ccccc32)cc1	-21%	u
CCCCNC(=O)c1cc2n(n1)CCCN(Cc1ccc(C)cc1)C2=O	u	-10%
COC(=O)c1c(-c2ccc(Cl)cc2)noc1N1CCN(c2cccc(OC)c2)CC1	7µM*	u
O=C(Cc1ccc(F)cc1)NCCc1csc2nc(-c3ccccc3F)nn12	1%	-1%
Cc1ccc2[nH]cc(C(c3ccccc3)c3ccc(C)s3)c2c1 (stereo not drawn)	u	u
Cc1cc(Cl)ccc1OCC(=O)N(Cc1sccc1C)C1CCS(=O)(=O)C1 (stereo not drawn)	-17%	18%
CCN(Cc1nc(-c2ccc(OC)cc2)oc1C)S(=O)(=O)c1ccc(Cl)cc1	u	2%
Cc1cc2nn(-c3ccc(F)cc3)nc2cc1NC(=O)c1cccc2ccccc12	u	5%
COc1ccc(CNC(=O)Cc2csc3nc(-c4ccc(F)cc4)cn23)cc1	-9%	u
Nc1nc2ncc(CNc3ccc(C(=O)N[C@@H](CCC(=O)O)C(=O)O)cc3)nc2c(=O)[nH]1	x	6%
Cc1ccc(C)c(NC(=O)CSc2nc3ccccc3nc2N2CCOCC2)c1	-7%	-1%
CCOc1ccc(CCNC(=O)CN(c2ccc(C)cc2)S(=O)(=O)N(C)C)cc1OCC	-13%	-16%
O=C(COc1ccccc1Cl)Nc1ccc(OCc2cc(=O)n3ccsc3n2)cc1	2%	-7%
Cc1ccc(NC(=O)C(=O)NCC(c2cccnc2)N2CCc3ccccc32)cc1Cl (stereo not drawn)	u	u

# The listing continues.
molecule	PMP22 txn prim	HTT prom inh
COc1cc(Br)c(/C=C(\C#N)c2nc3ccccc3[nH]2)cc1OC	u	52%[activator]
CNC(=O)C1CCN(C(=O)N2CC(C)Oc3ccc(C)cc32)CC1 (stereo not drawn)	15%	4%
Cc1cccc(NC(=O)C2CCCN2S(=O)(=O)c2ccc3c(c2)n(C)c(=O)c(=O)n3C)c1 (stereo not drawn)	20%	-1%
Cc1oc(-c2ccc(C(=O)NC(C)c3ccccc3)cc2)nc1CS(=O)(=O)c1ccccc1 (stereo not drawn)	-34%	-10%[11.5 µM]
CCOC(=O)c1[nH]c(C)c(CCC(=O)Nc2cccc(C(F)(F)F)c2)c1C	-7%	-20%
Cc1ccc(Sc2c(C)nn(C(=O)COc3ccccc3Br)c2C)cc1	-19%	-21%
CCC(CC)C(=O)Nc1ccc2nc(SCC(=O)N3CCOCC3)sc2c1	-24%	-19%
Cc1ccc(S(=O)(=O)Nc2ccc3c(c2)c(C(=O)OC(C)C)c(C)n3S(=O)(=O)c2ccc(C)cc2)cc1	-9%	u
CCCCCn1c(=O)[nH]c2cc(C(=O)Nc3cc(OC)cc(OC)c3)ccc2c1=O	u	-22%
COc1ccccc1Nc1nn2c(=O)c3ccc(C(=O)NCc4ccc(F)cc4)cc3nc2s1	4.6µM*	u
Cc1ccc(C)c(Cn2cc(CCC(=O)NC3CCCCC3)c3ccccc32)c1	-16%	-18%
CCOC(=O)C1CCN(CCC(=O)Nc2ccccc2OC)CC1	-4%	-6%
COc1ccc2nc(SCc3ncc(C)c(OC)c3C)[nH]c2c1	x	15%
CCC1CN(C(=O)N2CCC(C(=O)NCCc3ccccc3C)CC2)c2ccccc2O1 (stereo not drawn)	u	u
CC(C)c1ccc(S(=O)(=O)N2CCN(Cc3cccc(F)c3)CC2)cc1	u	-39%
COc1ccc(NC(=O)CSc2nc3ccccc3nc2N2CCOCC2)c(OC)c1	-7%	-19%
Cc1ccc(S(=O)(=O)NCC(c2ccc(N(C)C)cc2)N2CCc3ccccc32)cc1 (stereo not drawn)	-8%	-17%
CC(=O)Nc1c(I)c(NC(C)=O)c(I)c(C(=O)O)c1I	x	10%
CCOc1ccc(C(=O)c2cn(CC(=O)Nc3ccc(OC)cc3)c3cc4c(cc3c2=O)OCCO4)cc1	-30%	2%
CCCCNC(=O)CN1C(=O)COc2ccc(S(=O)(=O)N3CCCCCC3)cc21	-11%	-12%
O=C(NCC(c1ccc2c(c1)OCO2)N1CCOCC1)C(=O)Nc1cccc(Cl)c1 (stereo not drawn)	-6%	-26%
Cn1c(=O)c2c(nc(Oc3ccccc3)n2Cc2c(Cl)cccc2Cl)n(C)c1=O	-1%	-4%
CCOc1ccc(C(=O)N2CCC(c3nc4ccccc4o3)CC2)cc1	-23%	u
CCN1c2ccccc2-c2nc(SCC(=O)Nc3cc(C)c(Cl)cc3OC)ncc2S1(=O)=O	-24%	-41%
CCn1c(C(=O)N2CCCC(C(=O)NCCCOC)C2)cc2sccc21 (stereo not drawn)	-21%	-22%

# 17 structures already listed, ordered by molar mass, highest first:
molecule	PMP22 txn prim	HTT prom inh
CCOc1ccc(C(=O)c2cn(CC(=O)Nc3ccc(OC)cc3)c3cc4c(cc3c2=O)OCCO4)cc1	-30%	2%
CCOc1ccc(CCNC(=O)CN(c2ccc(C)cc2)S(=O)(=O)N(C)C)cc1OCC	-13%	-16%
Cc1oc(-c2ccc(C(=O)NC(C)c3ccccc3)cc2)nc1CS(=O)(=O)c1ccccc1 (stereo not drawn)	-34%	-10%[11.5 µM]
Cc1cccc(NC(=O)C2CCCN2S(=O)(=O)c2ccc3c(c2)n(C)c(=O)c(=O)n3C)c1 (stereo not drawn)	20%	-1%
Cc1nc(-c2ccc(Cl)cc2)sc1CCNC(=O)C(=O)Nc1ccc2c(c1)OCO2	u	-22%
Cc1ccc(S(=O)(=O)NCC(c2ccc(N(C)C)cc2)N2CCc3ccccc32)cc1 (stereo not drawn)	-8%	-17%
Cc1cc(Cl)ccc1OCC(=O)N(Cc1sccc1C)C1CCS(=O)(=O)C1 (stereo not drawn)	-17%	18%
CCCCNC(=O)CN1C(=O)COc2ccc(S(=O)(=O)N3CCCCCC3)cc21	-11%	-12%
Cc1cc2nn(-c3ccc(F)cc3)nc2cc1NC(=O)c1cccc2ccccc12	u	5%
CCn1c(C(=O)N2CCCC(C(=O)NCCCOC)C2)cc2sccc21 (stereo not drawn)	-21%	-22%
Cc1ccc(Cl)cc1N1CCN(c2ncnc3onc(C)c23)CC1	u	u
CCOC(=O)C1CCN(CCC(=O)Nc2ccccc2OC)CC1	-4%	-6%
CNC(=O)C1CCN(C(=O)N2CC(C)Oc3ccc(C)cc32)CC1 (stereo not drawn)	15%	4%
COc1ccc2nc(SCc3ncc(C)c(OC)c3C)[nH]c2c1	x	15%
Cc1ccc2[nH]cc(C(c3ccccc3)c3ccc(C)s3)c2c1 (stereo not drawn)	u	u
CC(=O)c1cccc(Nc2ncnc3c2cnn3C)c1	-8%	-8%
O=C(O)c1ccccn1	x	6%

# Continued.
molecule	PMP22 txn prim	HTT prom inh
O=C(CCCCCCNC(=O)c1cnc(N(c2ccccc2)c2ccccc2)nc1)NO	x	193%[activator]
Cc1ccc(-n2nc(C(=O)Nc3ccc(C)c(F)c3)c3c4ccccc4n(C)c3c2=O)cc1	0%	-16%
COc1ccc2oc(=O)cc(CN3CCN(Cc4ccccc4)CC3)c2c1	u	u
COc1cc(C2CC(=O)Nc3c2c(=O)n(C)c(=O)n3C)cc(OC)c1OC (stereo not drawn)	-2%	-10%
O=C(Nc1ccccc1C(F)(F)F)N1CCC(CN2CCc3ccccc3C2)CC1	4%	-16%

# Compound profiles (already shown):
# Entry for `CCOCc1cc(CN2CCN(c3cccc(Cl)c3)CC2)c(O)c2ncccc12` : PMP22 txn prim: 5.7µM*; HTT prom inh: u
# Entry for `Cc1cccc(NC(=O)Cn2c(SCC(=O)NCc3ccccc3)nc3ccccc32)c1C` : PMP22 txn prim: -96%; HTT prom inh: -22%

# From PubChem BioAssay
